NPYLR7 ag: agonists of mosquito NPYLR7 receptor, primary screen, cell-based, Aedes aegypti, calcium fluorescence, mosquito biting behavior; hit rate 0.15% among 270,000; activation, % at 10 µM; AID 1259423, 2018; Aedes aegypti neuropeptide Y-like receptor 7 (NPYLR7); HEK293T NPYLR7/Galpha15, GCaMP6s calcium fluorescence; in the data active = activation above about 40%;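 also: 0% = vehicle and 100% = reference agonist at the receptor; some compounds past the cut are filed as inactive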
NPYLR7 ag max-min: also measured in NPYLR7 ag; calls as there; activation, %; measured here: Max-Min RFU normalised activation; some inactives read as strong as hits;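 span of the calcium signal over five minutes; 0% = vehicle and 100% = native peptide agonist; compound fluorescence can raise it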
* = called active by the depositor.

SMILES	NPYLR7 ag	NPYLR7 ag max-min
CCc1nnc(NC(=O)C(=O)N2CCCC(N3CCCC3=O)C2)s1 (centres undefined)	2	0
O=C(c1ccccc1)c1cc(Cl)ccc1N=Nc1c(-c2ccccc2)[nH]n(-c2ccc([N+](=O)[O-])cc2)c1=O	-3	-9
Cc1cc(C(=O)Nc2ccc(N3CCCC3)cc2)c(C)n1-c1nccs1	8	5
OC1CCc2c(OCc3ccccc3)cccc21 (centres undefined)	1	0
Cc1ccc2nc(-c3ccccc3)c(Nc3c(C)cccc3C)n2c1	-4	4
COc1ccc(C(=O)N(Cc2cc(NC(=O)c3cccc(F)c3)ccc2N(C)C2CCN(C)CC2)CC(C)C)cc1	-4	-5
Cc1noc(C)c1CNC1CCN(C)CC1	6	3
CCCNC(=O)N1CCN(c2ccc(-c3ccccc3)cc2)C(=O)C1C (centres undefined)	-4	0
O=C(c1ccno1)N1CCC(CCc2ccc(-c3ccccc3)cc2)CC1	6	20
Cn1cccc1C=CC(=O)Oc1ccc2ccc(=O)oc2c1	6	3
CSCCC(N)C(=O)NC(CC(C)C)C(=O)NC(Cc1ccccc1)C(=O)O (centres undefined)	-7	-13
NC(=O)Cn1cnc2c(nnn2-c2ccc(OC(F)(F)F)cc2)c1=O	-1	-9
CC(C)C1CC(C)(c2csc(N)n2)OC1=O (centres undefined)	1	0
CCOC(=O)C1CCN(C(=O)CC(c2cccc(F)c2)c2c[nH]c3c(CC)cccc23)CC1 (centres undefined)	2	7
O=C(NCc1nnnn1-c1ccccc1)C1CC2(CCNCC2)CN1 (centres undefined)	9	4
CCCc1nnc2sc(C3CCCN(c4ccccn4)C3)nn12 (centres undefined)	-2	-3
O=C(NCCc1ccccn1)c1coc(CN(Cc2cccc(F)c2)Cc2cccc(C(F)(F)F)c2)n1	12	12
CNC(=O)c1ccc(NC(=O)/C=C/c2ccc(OC)c(Cl)c2)cc1	1	0
COc1ccc(C(C)C)cc1-c1cnc(NCCc2ccncc2)cn1	1	-1
Nc1nnc(SCc2ccccc2Cl)s1	5	0
COc1ccc(C=NNC(=O)c2cc(-c3ccc(OC(C)C)cc3)n[nH]2)cc1	2	-4
Cc1cccc(NC(=O)N2CCN(c3ccc4nnc(-c5ccco5)n4n3)CC2)c1C	1	7
COc1ccc(C2CC(=O)C3C(=Nc4ccccc4NC3c3c(Cl)cccc3Cl)C2)cc1 (centres undefined)	-8	-13
CCOP(=O)(Cc1ccc(NC(=O)CC(C)(C)CC(=O)O)cc1)OCC	-20	-30
CC(=O)c1c(C)nn(CC(=O)N2CCCC3(CC2)CNC(=O)O3)c1C (centres undefined)	10	8
O=C(NCC#Cc1ccccc1)C1(c2ccc(Cl)cc2)CC1	3	1
Cc1ccccc1C1c2ccsc2CCN1C(=O)CN(C(=O)c1cccs1)C1CC1 (centres undefined)	16	14
O=C(NNc1ccccc1Br)Nc1ccccc1	7	6
CC(=O)Nc1ccc(NC(=O)CC(NCCCO)C(=O)O)cc1 (centres undefined)	-10	-9
CN[C@@H](C)C(=O)N(Cc1cccc(C)c1)Cc1ccccc1OC	14	-1
O=C(NCCc1ccccc1)c1c(O)nc2sccn2c1=O	-1	2
COc1cccc(CCNC(=O)c2cn(C)nc2OC)c1	4	4
COC(=O)CCN1CCN(S(=O)(=O)c2cc([N+](=O)[O-])ccc2C)CC1	-2	-2
Cc1cc(C(=O)NCc2cccc(CN3CCC(C)CC3)c2)c(C)o1	3	2
Cc1ccc(C2=NN(C(=O)CN3CCN(c4ccccc4F)CC3)C(c3ccco3)C2)cc1 (centres undefined)	-7	3
CC1(C)CC(=O)c2cc(C#N)c(=O)n(CC(=O)Nc3ccc(Cl)cc3)c2C1	-2	-8
Cc1cccc(Cn2c(N3CCN(CCC(C)C)CC3)nc3c2c(=O)[nH]c(=O)n3C)c1	0	2
Cc1noc(C(NS(=O)(=O)c2ccc(C)c(C)c2)c2ccccc2)n1 (centres undefined)	2	0
COc1cccc(CN(CC(C)C)CC(C)(C)O)c1OC	27	24
Brc1cc(CN2CCOCC2)c(-c2ccccc2)s1	-8	-9
Cn1cc(OCc2ccc(F)cc2)c(=O)cc1C(=O)N1CCc2ccccc21	3	1
CC(C)(C)OC(=O)N1C(C(=O)NC2CCOC2=O)CSC1c1cccc(Br)c1 (centres undefined)	7	7
COC(=O)CCCNC(=O)C12CC3CC(CC(C3)C1)C2	2	-1
CCn1nccc1C(=O)N(Cc1ccccc1)c1nc2c(F)cc(F)cc2s1	3	5
Cc1cc(C)nc(NNS(=O)(=O)c2c(F)cc(F)cc2Br)n1	14	21
NC(=O)c1ccc(CN2CCN(c3ccccc3O)CC2)cc1	-1	0
CCOc1ncccc1CN1CCC(C(=O)Nc2ccccc2OC)CC1	0	-1
Cc1ccc2ncn(C3CCN(C(=O)CCCc4ccccc4)CC3)c2c1	-6	-12
O=C(/C=C/c1cccs1)N(Cc1ccncc1)c1nc2c(F)cccc2s1	-3	-9
CCOC(=O)c1cnc(SC)nc1N1C[C@H]2C[C@H](O)[C@@H](O)C[C@H]2C1	6	4

The list goes on.
SMILES	NPYLR7 ag	NPYLR7 ag max-min
CC(Sc1ccccc1F)C(=O)N(C)C (centres undefined)	-4	-5
COc1ccccc1C(=O)N1CCC(C(=O)NC2CCC(N(Cc3cccc(C)c3)C(=O)c3ccc(F)cc3)CC2)CC1 (centres undefined)	36	27
CC(=O)N(CCc1ccc(F)cc1)CC1=CCCN(CCO)C1	6	4
Cc1ccc(-n2ncc3c(=O)n(NC(=O)c4ccc(C(C)(C)C)cc4)cnc32)cc1	2	-2
O=c1c(Cl)c(Cl)cnn1-c1ccc(NCC2CCOC2)c(Cl)c1 (centres undefined)	4	4
COc1ccc(CC2c3c(cnn3C)C(=O)N2CC2CCOCC2)cc1 (centres undefined)	-3	-5
CNc1cncc(-c2ccc(O)cc2)n1	1	-3
COc1cccc2cc(-c3nnc(Nc4ccc(Cl)cc4Cl)s3)c(=O)oc12	-7	-10
CC(=O)Nc1ccc(-n2ccc3c(cnc4ncnn43)c2=O)cc1	-3	1
Cc1ccccc1C(C(=O)N1CCCN(C)C2(CCN(C)CC2)C1)N(C)C (centres undefined)	7	1
COC(=O)Cn1c(=NC(=O)C2=COCCO2)sc2ccccc21	2	0
Cc1nc(-n2nc(-c3cccs3)cc2NC(=O)c2ccccc2F)[nH]c(=O)c1C	-3	-3
COc1cccc(C(C)N(C)C(=O)CCc2nnc(Cc3c[nH]c4ccccc34)o2)c1 (centres undefined)	6	4
CC1CCCCN1CCC1CCN(C(=O)C2CCN(S(C)(=O)=O)CC2)CC1 (centres undefined)	-3	36
CCC(C)c1ccccc1OCC(=O)N1CCC2(CC1)C(=O)NCCN2C (centres undefined)	7	0
COCc1ccc(CNC(C)c2cnc(N3CCCCCCC3)nc2C)o1 (centres undefined)	4	-1
Cc1ccc2[nH]cc(-c3nc(C)cnc3C)c2c1	6	8
N#Cc1cccc(OCC(=O)Nc2ccccc2Br)c1	6	3
CCN(CC)C(=O)Oc1ccc2c(ccn2Cc2ccccc2Br)c1-c1cc(Cl)cc(Cl)c1	4	-7
Cc1nc2ncccn2c1C(=O)N1CCC(c2cc(C(C)C)n[nH]2)CC1	15	14
CC1=C(C(=O)Nc2ccccc2C(F)(F)F)C(c2ccccc2Cl)NC(=O)N1C1CC1 (centres undefined)	-1	-1
COc1ccc(-c2cc(NS(=O)(=O)c3cnc[nH]3)n(C3CCS(=O)(=O)C3)n2)cc1 (centres undefined)	-1	-3
Oc1oc(-c2ccc(Br)cc2)nc1C=Nc1ccc2ccccc2c1	-2	-5
COc1ccc(-c2nnc3ccc(SCC(=O)Nc4nc5ccc(C)cc5s4)nn23)cc1	14	12
CCOC(=O)C1=C(COC(=O)c2ccco2)NC(=O)NC1CC (centres undefined)	2	8
Cc1cc(C)c(S(=O)(=O)N2CCN(c3nccc(-c4cccs4)n3)CC2)c(C)c1	-4	-6
Cc1nnc2sc(-c3ccco3)nn12	1	6
COCc1nc(N2CCN(C(=O)Nc3cccc(C(F)(F)F)c3)CC2)c2c3c(sc2n1)CCCC3	-6	-6
C=CCN=c1scc(-c2ccccc2)n1N=Cc1ccccn1	-5	-14
CCc1ccc2nc(NC(=O)N(C)CC(C)(C)O)sc2c1	-2	-3

Copied from the results shown, 18 compounds:
SMILES	NPYLR7 ag	NPYLR7 ag max-min
COc1cccc2cc(-c3nnc(Nc4ccc(Cl)cc4Cl)s3)c(=O)oc12	-7	-10
CC(=O)Nc1ccc(-n2ccc3c(cnc4ncnn43)c2=O)cc1	-3	1
Cc1ccccc1C(C(=O)N1CCCN(C)C2(CCN(C)CC2)C1)N(C)C (centres undefined)	7	1
COC(=O)Cn1c(=NC(=O)C2=COCCO2)sc2ccccc21	2	0
Cc1nc(-n2nc(-c3cccs3)cc2NC(=O)c2ccccc2F)[nH]c(=O)c1C	-3	-3
COc1cccc(C(C)N(C)C(=O)CCc2nnc(Cc3c[nH]c4ccccc34)o2)c1 (centres undefined)	6	4
CC1CCCCN1CCC1CCN(C(=O)C2CCN(S(C)(=O)=O)CC2)CC1 (centres undefined)	-3	36
CCC(C)c1ccccc1OCC(=O)N1CCC2(CC1)C(=O)NCCN2C (centres undefined)	7	0
COCc1ccc(CNC(C)c2cnc(N3CCCCCCC3)nc2C)o1 (centres undefined)	4	-1
Cc1ccc2[nH]cc(-c3nc(C)cnc3C)c2c1	6	8
N#Cc1cccc(OCC(=O)Nc2ccccc2Br)c1	6	3
CCN(CC)C(=O)Oc1ccc2c(ccn2Cc2ccccc2Br)c1-c1cc(Cl)cc(Cl)c1	4	-7
Cc1nc2ncccn2c1C(=O)N1CCC(c2cc(C(C)C)n[nH]2)CC1	15	14
CC1=C(C(=O)Nc2ccccc2C(F)(F)F)C(c2ccccc2Cl)NC(=O)N1C1CC1 (centres undefined)	-1	-1
COc1ccc(-c2cc(NS(=O)(=O)c3cnc[nH]3)n(C3CCS(=O)(=O)C3)n2)cc1 (centres undefined)	-1	-3
Oc1oc(-c2ccc(Br)cc2)nc1C=Nc1ccc2ccccc2c1	-2	-5
COc1ccc(-c2nnc3ccc(SCC(=O)Nc4nc5ccc(C)cc5s4)nn23)cc1	14	12
CCOC(=O)C1=C(COC(=O)c2ccco2)NC(=O)NC1CC (centres undefined)	2	8

Additional compounds follow.
SMILES	NPYLR7 ag	NPYLR7 ag max-min
CC(=O)c1ccc(N=Cc2nc(-c3ccccc3)oc2O)cc1	5	1
O=C(O[C@H]1CN2CCC1CC2)N1CCc2ccccc2[C@@H]1c1ccccc1	9	-2
C=CCNC(=O)N1CCN(C(C(=O)NCCCN2CCOCC2)C2CCCC2)CC1 (centres undefined)	14	13
COc1ccc(/C=C/C2=NC(=C\C=C\c3ccccc3)/C(=O)O2)cc1	1	3
O=C(Cn1nc(C2CC2)c2cnn(-c3ccccc3)c2c1=O)N1CCOCC1	8	5
CCCNC(=O)Nc1cc(C)on1	-5	-11
CC1CCCCN1CCNC(=O)c1cc(F)cc(F)c1 (centres undefined)	3	2
c1ccc(Cn2ccnc2CSc2nnc(-c3ccc4ccccc4n3)o2)cc1	3	-2
Cc1ccc(C=Nc2sc3c(c2C#N)CCC(C)C3)o1 (centres undefined)	12	13
On1c(-c2ccco2)nc2c1CCc1nonc1-2	14	6
CCn1nc(C)c(CNC(=O)CCc2nnc(-c3ccc(-c4ccccc4)cc3)o2)c1C	-1	-3
COC(=O)c1ccc(N=C2SC(C(=O)Nc3ccccc3F)CC(=O)N2C)cc1 (centres undefined)	3	2
O=C(CCCc1ccccc1)NCc1nnnn1C1CCCCC1	11	8
Cc1[nH][nH]c(=O)c1CC(=O)N(C)Cc1ccc2nsnc2c1	3	3
COc1ccc(C(=O)NCc2nnc(SCC(=O)Nc3nccs3)n2-c2ccc(Br)cc2)c(OC)c1	-5	2
Cc1nc(SCC(=O)N2CCCCC2)c2c(C)c(C)sc2n1	3	6
CCCCc1ccc(S(=O)(=O)N2CCN(c3nccc(-c4cccc(C(F)(F)F)c4)n3)CC2)cc1	5	1
CC(=O)Cn1c(=O)c2c(nc3n(-c4ccc(Cl)cc4)c(C)cn23)n(C)c1=O	-1	18
Cn1cc(C(=O)Nc2ccc(OC(F)(F)F)cc2)c2[nH]c(=O)n(-c3ccccc3)c(=O)c21	3	-1
Cc1oc(-c2ccccc2Cl)nc1CN(C)Cc1cccc2ncccc12	-9	-13
Cc1cc2ccccc2n1CCNC(=O)NC1CC(=O)N(c2ccc3c(c2)OCCO3)C1 (centres undefined)	2	-1
COCc1ccc(C(=O)NC2CCCc3c2cnn3-c2cc(C)cc(C)c2)s1 (centres undefined)	7	1
O=C(CSc1nc(=O)n(CCCO)c2c1CCC2)N1CCCC1	-8	-12
Cc1cc(C)n(CC(=O)NCc2ccc(Cl)cc2)c(=O)c1C#N	6	1
CCCCS(=O)(=O)N1CCN(c2ccc(Nc3ccccn3)nn2)CC1	12	3
COc1ccc(-c2c[nH]c(=S)n2C)cc1	-8	-12
Cc1cccc(CN2CCCC3(CCN(C4CCSCC4)C3)C2=O)c1 (centres undefined)	15	5
CNC(=O)C1CCN(C(=O)COc2cccc(C)c2C)CC1	-1	-3
CCCCCCc1ccc(C(=O)N2CCSC2c2ccc(C)cc2C)cc1 (centres undefined)	16	18
CNC(=O)CN1C(=O)CN(C(=O)OCC(C)(C)C)CCC(OC)c2ccccc21 (centres undefined)	-2	-3
CC(C)N(Cc1nnc(-c2ccccc2)o1)C(=O)c1ccc2ccccc2c1	-6	-3
COC(=O)c1ccc(NC(=O)c2c(F)cccc2F)c(Cl)c1	5	3
CCOC(=O)c1nn(-c2ccc(C)cc2)c(=O)c2c(NC(=O)CCc3ccccc3)scc12	3	-3
O=C(O)[C@H]1C[C@H](C(=O)NCc2ccccn2)CN(C2Cc3ccccc3C2)C1	6	2
Cc1ccc(C(CN2CCOCC2)NC(=O)COc2ccc(C)cc2C)cc1 (centres undefined)	13	12
Cc1nc(C2CCN(Cc3ccn(-c4ccc(F)cc4)n3)CC2)no1	0	-12
CCCCCN(CC(=O)N(Cc1ccccc1)Cc1cccn1Cc1cccc(OC)c1)C(=O)C1CC1	8	14
CN(C)c1ncc(CN2CCCC(N3CCN(Cc4ccc5c(c4)OCO5)CC3)C2)s1 (centres undefined)	13	6

Screens (PubChem)

An excerpt; the hit share may differ from the screen's.
